Screening data deposited in PubChem BioAssay by several laboratories.
Insulin prom inh = TRM-6 insulin promoter activity inhibition. TRM-6 cells (human fetal islet line), insulin promoter-eGFP reporter, imaging; reporter expression induced with tamoxifen. inhibition, % at 2 µM. actives 0.9% (n = 130,000). AID 1273;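 active = inhibition above the mean plus 3 SD, with well images judged a real hit on visual review, cut at about 60% in these data, passing the limit was not always enough; inconclusive = inhibition over the cutoff but images rejected on review; inactive = inhibition not above the cutoff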
PKD1 inh = blocks activity of human protein kinase D1 | Q15139 | PKD1 kinase fluorescence polarization assay | inhibition, %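 (about 10 µM by stock and volumes)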 | actives 0.056% (n = 200,000) | AID 797;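 active = inhibition of 50% or more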;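 also: controls were vehicle for no effect and a reference inhibitor for full effect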
Target sequence (Q15139 whole entry, looked up): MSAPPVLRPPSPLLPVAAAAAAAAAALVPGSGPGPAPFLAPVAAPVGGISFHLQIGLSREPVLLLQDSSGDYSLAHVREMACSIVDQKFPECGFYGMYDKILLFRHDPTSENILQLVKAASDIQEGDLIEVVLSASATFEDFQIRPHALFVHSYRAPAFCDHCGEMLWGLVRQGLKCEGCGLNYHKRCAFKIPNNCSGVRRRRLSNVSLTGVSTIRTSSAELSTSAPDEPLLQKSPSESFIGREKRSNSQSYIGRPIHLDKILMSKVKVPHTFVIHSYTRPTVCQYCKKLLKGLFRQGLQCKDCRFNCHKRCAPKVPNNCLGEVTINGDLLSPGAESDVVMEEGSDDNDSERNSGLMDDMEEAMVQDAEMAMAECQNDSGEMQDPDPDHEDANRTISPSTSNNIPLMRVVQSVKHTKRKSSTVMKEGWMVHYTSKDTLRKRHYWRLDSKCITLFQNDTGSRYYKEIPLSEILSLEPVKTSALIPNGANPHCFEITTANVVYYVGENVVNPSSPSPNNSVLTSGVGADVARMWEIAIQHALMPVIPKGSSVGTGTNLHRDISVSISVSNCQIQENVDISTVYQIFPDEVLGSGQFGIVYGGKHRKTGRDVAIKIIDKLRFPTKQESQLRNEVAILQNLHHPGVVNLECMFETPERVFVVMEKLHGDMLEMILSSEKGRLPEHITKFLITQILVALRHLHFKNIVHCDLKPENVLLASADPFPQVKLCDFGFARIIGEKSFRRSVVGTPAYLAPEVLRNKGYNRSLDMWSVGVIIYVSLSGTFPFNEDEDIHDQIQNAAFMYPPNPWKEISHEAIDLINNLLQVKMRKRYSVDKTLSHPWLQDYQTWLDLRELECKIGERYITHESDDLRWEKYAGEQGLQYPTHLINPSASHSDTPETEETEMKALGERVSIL
RGS16-Gao = regulators of human RGS16-Galphao interaction; O15492+P09471; bead-based flow cytometry RGS16-Galphao binding, fluorescence; actives lie on both sides; binding response (% of control), % at 10 µM; actives 0.38% (n = 220,000); AID 1441;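 active = below 25% or above 175%, edge rows of some plates excepted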;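 also: Galphao activated by GDP with aluminum fluoride before binding; 100% = wells without compound and 0% = beads without RGS; some results beyond the cut were filed as inactive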
HSV augment = HSV replication enhancement. HSV replication augmentation in cells, fold increase. maximum fold increase. actives 0.005% (n = 220,000). AID 1956;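 active = peak rise of 1.5-fold or more in the series; inconclusive = self-fluorescent or not available for retest; tested in PC3 cells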;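 also: first round at 10 µM; read as green reporter fluorescence; hits show the peak of a series up to 25 µM; 1 = signal of infected wells without compound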
GALR2 agonist = agonists of human galanin receptor 2 (GALR2); O43603; GALR2-expressing cells, agonist activation read-out; activation, %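 (tested at 5 µM)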; actives 0.48% (n = 140,000); AID 803;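 active = above mean plus 3 SD of all compounds, about 5% in these data, not always enough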;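 also: 0% = vehicle buffer wells and 100% = reference agonist at full effect; tested in CHO reporter cells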
Insulin prom inh cell count = further read-out of Insulin prom inh, marked with its call; normalized cell count, %; measured here: cell count, toxicity; reference of the scale not given here;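 cells exposed to compound for 48 h; stained nuclei by imaging scaled within each plate; lower means fewer cells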
HSV augment primary fold = further read-out of HSV augment, marked with its call; fold increase; compound at 10 µM; measured here: primary screen fold increase 10 uM; tested in PC3 cells;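 GFP signal in the first replicate; 1 = infected wells without compound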
Starred values were filed as active, the others as inactive; i = inactive; u = inconclusive; x = not tested or not shown.

Order of results – Insulin prom inh	Insulin prom inh cell count	PKD1 inh	RGS16-Gao	HSV augment	HSV augment primary fold	GALR2 agonist
> COc1ccc(C(=O)Nc2cccc3cccnc23)cc1OC
→ 19	106	0	99	i	1	-0.2
> Cc1ccc(NC(=O)/C=C/c2cccc([N+](=O)[O-])c2)nc1
→ x	x	-4	95	i	0.95	x
> CCCCc1n[nH]c2c1/C(=N/O)CC(c1ccccc1)C2 (configuration not stated)
→ x	x	-8	105	i	1	-3.6
> Oc1ccc(/C=N/Nc2cc(N3CCCC3)nc(N3CCCC3)n2)cc1O
→ 15	102	19	78	i	0.86	-0.5
> CCCSCCCNC(=O)Cn1cc2c(n1)CCCCC2
→ -130	85	-6	47	i	0.83	-0.5
> Cc1cccc(NCC(=O)NNC(=S)Nc2ccccc2)c1
→ x	x	-1	56	i	0.97	x
> Cc1cc(C(=O)OCC(=O)Nc2cc(S(=O)(=O)N(C)C)ccc2Cl)c2ccccc2n1
→ x	x	-2	99	i	0.78	x
> Cc1cc(NC(=O)CSc2nnc(Nc3ccccc3C)s2)no1
→ x	x	x	93	i	0.87	x
> Cc1cnn(Cc2ccccc2)c1N
→ x	x	-6	103	i	1	-1.9
> COc1ccc(CCNC(=O)CN(C)S(=O)(=O)c2cccs2)cc1OC
→ 14	131	0	98	i	0.77	-2.5
> O=C(NC(=S)N1CCN(Cc2ccccc2)CC1)c1cccnc1
→ x	x	6	96	i	0.9	x
> O=c1[nH]c2ccccc2c(O)c1SCCO
→ x	x	10	100	i	1	x
> Cc1ccc(-c2nc3cccnc3o2)cc1NC(=O)COc1ccc(Cl)cc1C
→ -62	92	-3	135	i	0.98	-2.8
> COc1ccc(C2CC(c3ccccc3)=NN2C(=O)COC(=O)C2(C)CC2(Cl)Cl)cc1 (configuration not stated)
→ -29	89	3	91	i	1.1	x
> O=C(Nc1ccc(-n2ccnc2P(=O)(O)c2ccccc2)cc1)c1ccccc1Cl
→ -2	107	-8	108	i	0.92	-1.7
> COC(=O)C(O)(CC(=O)Nc1ccc(Cl)cc1Cl)C(F)(F)F (configuration not stated)
→ 60	127	-1	75	i	1	-1.4
> COC(=O)C1=NNC2C(=O)N(C3CCCCC3)C(=O)C12 (configuration not stated)
→ x	x	11	104	i	1.2	x
> O=C1c2cccnc2C(=O)N1Cc1ccccc1
→ x	x	5	95	i	0.86	-0.3
> COc1cc2nc(C3CC3)n(NC(=O)c3ccc(Cl)cc3)c(=O)c2cc1OC
→ 18	115	-10	111	i	0.87	-1.4
> O=C(NCc1ccc(Cl)cc1)c1csc(-c2cccnc2)n1
→ x	x	x	101	i	1	x

Carrying on:
Order of results – Insulin prom inh	Insulin prom inh cell count	PKD1 inh	RGS16-Gao	HSV augment	HSV augment primary fold	GALR2 agonist
> C/C(NCCN1CCOCC1)=C(\C#N)C(N)=O
→ 26	101	6	106	i	0.92	-1.3
> CC(C)CC(=O)NC(=S)Nc1ccc(N2CCOCC2)cc1
→ -44	76	-8	106	i	0.97	-0.4
> CSc1ccccc1NC(=O)CN(C1CCCCC1)S(C)(=O)=O
→ 34	36	-8	103	i	0.94	-0.1
> CC(C)(C)C(=O)Nc1sc2c(c1C#N)CCCCC2
→ 39	110	-3	49	i	0.94	-0.8
> CC1(C)C(=O)Nc2ccccc2N1C(=O)COc1cccnc1[N+](=O)[O-]
→ -18	105	5	109	i	0.95	x
> Cc1ccc(C)c(N2CCN(C(=O)CN(C)S(=O)(=O)c3ccc4c(c3)CCC(=O)N4)CC2)c1
→ x	x	7	123	i	0.8	-2.8
> Cc1c(C(=O)NC2CC2)oc2ccc(S(=O)(=O)N3CCCCCC3)cc12
→ x	x	x	100	i	0.96	x
> FC(F)Sc1ccc(-n2cc(-c3ccc(Cl)cc3)[n+]3c2CCC3)cc1
→ -86	116	3	105	i	1.1	-0.9
> N#CCCn1ncc2ccccc21
→ 31	115	-18	97	i	0.83	-2.9
> CC(C)CC(=O)n1sc(NC(=O)c2ccccc2)nc1=O
→ -7	62	-16	102	i	0.99	-0.9
> CC(CO)(CO)NC(=O)c1ccc(=O)[nH]n1
→ x	x	x	99	i	0.94	x
> O=C(Nc1ccc2c(c1)OCCO2)N1CCN(Cc2ccccc2)CC1
→ 33	44	-1	101	i	0.97	x
> Fc1ccc(CSc2ccc(-c3ccc4c(c3)OCO4)nn2)cc1
→ x	x	-2	103	i	0.95	-0.9
> CC(=O)NCCCC(=O)NNC1CC(=O)N(c2cccc(Cl)c2)C1=O (configuration not stated)
→ x	x	x	102	i	0.94	x
> CC(Oc1ccccc1)C(=O)NNC(=O)c1ccccn1 (configuration not stated)
→ -29	70	0	125	i	0.93	0.8
> O=C(CNC(=O)c1cccs1)NCC(=O)OCc1c(Cl)cccc1Cl
→ x	x	-9	96	i	0.96	-1.2
> CC(CN(C)Cc1ccccc1)OC(=O)c1cccs1 (configuration not stated)
→ 37	102	-21	104	i	0.9	0.2
> Cc1ccccc1C(=O)/C=C1\NC(=O)CS1
→ x	x	-4	96	i	0.94	-2.0
> C(=C\c1ccc(/C=C/c2ccccc2)nn1)/c1ccccc1
→ x	x	x	96	i	0.95	x
> CC(CC(=O)O)CC(=O)Nc1ccc(Br)cc1 (configuration not stated)
→ x	x	x	99	i	1.1	x

Remaining list, next part
Order of results – Insulin prom inh	Insulin prom inh cell count	PKD1 inh	RGS16-Gao	HSV augment	HSV augment primary fold	GALR2 agonist
> C/C(=N\NC(=O)c1ccc2nc[nH]c2c1)c1ccc([N+](=O)[O-])cc1
→ x	x	x	102	i	1.1	x
> CC(C)=CCN1CCN(CCC2=C(C)CCCC2(C)C)CC1CCO (configuration not stated)
→ x	x	8	99	i	0.8	x
> COc1ccc(N2C(C(C)=O)=NN(c3ccccc3)C2c2cccs2)cc1 (configuration not stated)
→ 57	84	2	105	i	1.1	-1.7
> O=C1/C(=C/c2ccccc2)NC(=S)N1C(c1ccccc1)c1ccccc1
→ 26	113	-9	106	i	0.9	-0.5
> COc1ccc(O)c(-c2[nH]ncc2C(=O)c2ccccc2C)c1
→ 48	188	-15	100	i	0.8	-3.2
> CN1CCN(C(=O)NC2CCCN2S(=O)(=O)c2ccc(Cl)cc2)CC1 (configuration not stated)
→ 42	72	-1	102	i	0.84	-1.2
> O=c1c2ccccc2nc2sc3ccccc3n12
→ -9	58	-11	106	i	0.86	-3.0
> O=C(Nc1c(F)cc(F)cc1Br)c1cccnc1
→ 7	135	-4	103	i	0.72	0.2
> C=CCSc1nnc(-c2c[nH]c3ccccc23)n1CC
→ x	x	-3	93	i	0.73	-4.0
> CCc1ccc(C(CNC(=O)c2ccc3c(=O)n(-c4ccccc4F)c(=S)[nH]c3c2)N(C)C)cc1 (configuration not stated)
→ -50	166	-6	101	x	x	x
> O=C(Nc1ccc(F)cc1)NC1CCN(Cc2nnnn2Cc2ccco2)CC1
→ 22	26	-10	105	i	0.93	0.2
> O=C(N/N=C/C(Br)=C\c1ccccc1)c1ccc2nc[nH]c2c1
→ 62	34	1	94	i	0.76	-1.5
> CCCCNC(=O)c1onc(CSc2ccc(Cl)cc2)c1C(=O)O
→ x	x	5	101	i	0.89	-3.9
> O=C(CSCc1cccc(F)c1)N1CCN(c2ccccc2)CC1
→ x	x	-5	105	i	1.1	-1.2
> O=C(OCC(=O)N1CCCC1)c1cc(Br)ccc1Cl
→ -36	106	1	106	i	0.89	x
> COC(=O)c1c(C)nn(-c2ccc(OC(F)(F)F)cc2)c1-c1snnc1C
→ x	x	x	98	i	1	x
> CCOC(=O)c1[nH]c(C)c(C(=O)N2CCc3c([nH]c4ccccc34)C2c2ccccn2)c1C (configuration not stated)
→ -30	109	-6	114	i	0.7	x
> O=C(Nc1ccc(F)cc1)c1ccccc1CC[N+](=O)[O-]
→ -21	172	-2	133	i	0.99	0.0
> COc1ccc(-n2c(SC(C)C(=O)Nc3ncc(Cl)cc3Cl)nc3ccccc32)cc1 (configuration not stated)
→ x	x	-3	63	i	1	-0.9
> CCOC(=O)CN(C(=O)CNC(=O)c1cccs1)C(C(=O)NC1CCCCC1)c1cccs1 (configuration not stated)
→ -112	50	3	51	i	1.1	-2.0

Continued:
Order of results – Insulin prom inh	Insulin prom inh cell count	PKD1 inh	RGS16-Gao	HSV augment	HSV augment primary fold	GALR2 agonist
> O=C(Cn1nnc(-c2ccccc2-n2cnnn2)n1)c1ccccc1
→ -10	109	5	-8	i	0.93	-2.2
> CC(C)c1ccc(/C=C2\SC(N3CCOCC3)=NC2=O)cc1
→ x	x	x	97	i	0.84	x
> O=C(Nc1nc(-c2ccccn2)cs1)c1ccc([N+](=O)[O-])o1
→ x	x	x	90	i	0.81	x
> CCOC(=O)C(=O)/C(C#N)=C/Nc1ccc(F)cc1
→ x	x	-1	97	i	0.78	-2.3
> O=C(CC1C(=O)NCCN1Cc1ccc(F)cc1)NCCN1CCCc2ccccc21 (configuration not stated)
→ x	x	4	103	i	1.1	x
> CCCCOc1ccc(-c2nnc(-c3cc[n+](C)cc3)o2)cc1
→ x	x	-11	94	i	0.75	x
> Cc1nn(C2CCCCC2)c(N)c1-c1ccccc1
→ 32	128	8	101	i	0.93	-2.3
> CSc1ccc(-c2nc(CN3CCCCC3c3cccnc3)c(C)o2)cc1 (configuration not stated)
→ x	x	-2	106	i	1.1	x
> COc1ccccc1NS(=O)(=O)c1cccs1
→ 36	71	-10	53	i	0.83	-2.4
> CCCCNC(=O)NC12CC3CC(CC(C3)C1)C2
→ x	x	-1	103	i	0.79	x
> O=C1C2CC=CCC2C(=O)N1Cc1nnc(-c2ccc(Cl)cc2)o1 (configuration not stated)
→ x	x	1	100	i	0.95	x
> Cc1oc(S(=O)(=O)N(C)C)cc1C(=O)Nc1ccc(Cl)cc1
→ x	x	x	101	i	1.1	x
> Cc1ccc(NC(=O)CCc2nc3ccccc3[nH]2)cc1C
→ x	x	x	99	i	1.2	x
> C(#Cc1ccc(C#CCN2CCCC2)cc1)CN1CCCC1
→ x	x	5	105	x	x	-1.7
> FC(F)(F)c1nnc2c(Sc3ccccc3)nc3ccc(Cl)cc3n12
→ 7	141	-4	98	i	0.4	-3.1
> COCCn1nnnc1C(c1ccc2ncccc2c1)N1CCc2ccccc21 (configuration not stated)
→ -133	60	0	58	i	0.94	0.0
> CCNC(=S)NNC(=O)c1cc(-c2cccnc2)nc2ccccc12
→ 14	102	-5	99	i	0.96	x
> O=[N+]([O-])c1ccc(N/N=C/c2sc(N3CCOCC3)nc2-c2ccccc2)c(S(=O)(=O)Nc2ccc(Cl)cc2)c1
→ -488	49	16	116	u	x	x
> Cc1cccc(C)c1NC(=O)NC1(C(=O)NCCN2CCOCC2)CCCCC1
→ -21	109	5	104	i	0.99	x
> COCCn1c(=O)[nH]c2cc(C(=O)NCCN3CCN(c4ccc(OC)cc4)CC3)ccc2c1=O
→ -11	46	-1	118	i	1.1	-1.5

Next compounds follow:
Order of results – Insulin prom inh	Insulin prom inh cell count	PKD1 inh	RGS16-Gao	HSV augment	HSV augment primary fold	GALR2 agonist
> COc1ccc(N2C(=O)/C(=C\c3ccco3)N=C2SCC(=O)NC(C)C)cc1Cl
→ x	x	4	111	i	1.1	-0.2
> CCCNS(=O)(=O)c1ccc(CCC(=O)N2CCCCC2)cc1
→ 58	86	2	116	i	0.89	-2.3
> O=C(O)C1CC=CCC1C(=O)NCCCCc1ccccc1 (configuration not stated)
→ 32	125	3	92	i	1.1	x
> COc1cc(O)c(C(CC(=O)N2CCOCC2)c2cc(OC)c(OC)c(OC)c2)c(OC)c1 (configuration not stated)
→ x	x	x	104	i	0.7	x
